Compound activity: PubChem BioAssay, National Center for Advancing Translational Sciences (NCATS)
TRPML1 ag = human mucolipin-1 channel agonism. Q9GZU1. TRPML1-expressing cells, Ca2+ dye fluorescence, FDSS; host cell line not named in the record; reference of the full effect not given here. activation, % (test concentration not listed). 0.12% of 410,000 active; in the data active = activation above about 50%; inconclusive = about 30% to 50%; inactive = below about 30%; also: 0% is about no effect; the text of the record puts the active cut at 80%
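Cells: TRPML1-DL, 1X Tet inducer, ~16 h at 37 degrees C/5% CO2. Dye: ABD Ca8 no-wash + quencher, 45-90 min RT. Read: 10 s baseline, compound add, 110 s agonist phase; 54-4 EC80 (4uM final), 110 s antagonist phase.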
D2 PAM = potentiates the human D2 dopamine receptor allosterically. 0.23% of 360,000 active. P14416. AID 624464. DiscoveRx D2 beta-arrestin cells, luminescence, 90 min; 100% = 57 uM dopamine signal. potentiation, % (concentration not given with the values); active = potentiation of 50% or more; inconclusive = 30% to 50%; inactive = 30% or less;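 also: compound concentration not given in the record; tested on top of an EC20 dose of dopamine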
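PathHunter beta-arrestin assay in DiscoveRx D2 cells. Compounds were added with an EC20 of dopamine (50 nM final) for 90 min at 37 deg C. Luminescence was read 1 h after detection reagent, with 57 uM dopamine as the EC100 control.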
D2 ag = activates the human D2 dopamine receptor; P14416; DiscoveRx PathHunter D2 beta-arrestin, luminescence, 90 min; 100% = 57 uM dopamine signal; activation, % (no concentration beside the values); 0.084% of 360,000 active; AID 624465; in the data active = activation above about 40%; inconclusive = about 15% to 40%; inactive = below about 15%; also: compound concentration not given in the record; the text of the record calls up to 30% inactive
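Agonist mode: compounds alone added to overnight-plated D2 PathHunter cells for 90 min at 37 C, with 57 uM final dopamine (EC100) defining full response. Beta-arrestin recruitment detected by chemiluminescent reagent, read after 1 h at ambient temperature.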
CtBP-E1A inh = CtBP/E1A binding inhibition; activity change, % (test concentration not listed); AlphaScreen GST-E1A/His-CtBP binding, 1536-well; active compounds read low; control for the full effect not named in the record; 0.49% of 340,000 active; in the data active means activity change below about -65%; inconclusive means about -30% to -65%; inactive means above about -30%; also: % is scaled to controls: 0 for no effect and ±100 for the full control effect
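In 5 uL wells, 23 nL compound meets equimolar GST-E1A and His-CtBP (5X stock 125 nM each) for 2 h, 37 °C. Beads (5X, 50 ug/mL) then 1 h, 37 °C, dark.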
PINK1 modulator = PINK1 expression modulation; Potency, µM (doses to about 76.6 µM), without a hit: top-dose activation (PINK1 increase), usual class: activators; PINK1 immunofluorescence, high-content cytometry, 24 h; AID 624263; 0.2% of 410,000 active; active = well fitted activation curve with a large enough effect; inconclusive = small, poorly fitted or top-dose-only effect; inactive = flat fitted curve, though single readings scatter; cell line not stated here;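 also: potency is read from the fitted curve at half-maximal effect; % of control where 0% means no effect; nearly all actives have a fitted effect of over 65% in size; a mitochondrial uncoupler was the plate control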
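PINK1 protein, normally rapidly degraded, was detected by immunofluorescence after 24 hour compound treatment of a stable cell line. Titration data (5 concentrations) came from laser-scanning cytometry, with CCCP-treated wells as controls.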
Six1-Eya2 inh = blocks human Six1 binding to Eya2; 0.56% of 360,000 active; Q15475+O00167; AID 651725; AlphaScreen GST-Six1/His-Eya2 binding, biochemical; active compounds read low; control for the full effect not named in the record; activity change, % (no concentration beside the values); in the data active = activity change below about -65%; inconclusive = about -30% to -65%; inactive = above about -30%; also: % is scaled to controls: 0 for no effect and ±100 for the full control effect
Target sequence (O00167 whole entry, looked up): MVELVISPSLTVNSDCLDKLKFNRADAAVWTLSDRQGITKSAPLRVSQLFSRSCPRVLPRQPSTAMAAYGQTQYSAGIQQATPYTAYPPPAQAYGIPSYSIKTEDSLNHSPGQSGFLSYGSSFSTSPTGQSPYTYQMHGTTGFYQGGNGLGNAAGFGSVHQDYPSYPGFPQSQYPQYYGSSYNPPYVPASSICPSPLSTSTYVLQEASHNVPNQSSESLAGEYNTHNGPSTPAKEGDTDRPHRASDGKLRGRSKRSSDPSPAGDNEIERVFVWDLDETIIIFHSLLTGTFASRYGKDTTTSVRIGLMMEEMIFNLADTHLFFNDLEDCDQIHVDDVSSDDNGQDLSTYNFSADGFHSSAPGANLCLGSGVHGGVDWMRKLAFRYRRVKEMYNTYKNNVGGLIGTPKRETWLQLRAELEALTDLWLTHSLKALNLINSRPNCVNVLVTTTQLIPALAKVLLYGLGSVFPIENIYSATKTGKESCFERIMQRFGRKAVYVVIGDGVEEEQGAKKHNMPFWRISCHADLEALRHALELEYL
Target sequence (Q15475 whole entry, looked up): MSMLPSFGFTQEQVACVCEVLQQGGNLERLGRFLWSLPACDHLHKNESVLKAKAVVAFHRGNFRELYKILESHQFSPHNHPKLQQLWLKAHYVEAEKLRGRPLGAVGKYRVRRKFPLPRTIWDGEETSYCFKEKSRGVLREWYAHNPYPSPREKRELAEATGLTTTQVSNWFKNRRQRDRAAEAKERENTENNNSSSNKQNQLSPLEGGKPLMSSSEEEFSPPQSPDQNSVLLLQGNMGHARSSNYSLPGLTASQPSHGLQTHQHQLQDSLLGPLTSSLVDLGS
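Homogeneous AlphaScreen proximity assay pairing GST-Six1 with His-tagged Eya2 (added as 5X mix: 250 nM and 500 nM) in 50 mM Tris pH 8.0, 300 mM NaCl, 1 mM TCEP. Glutathione donor and nickel acceptor beads; 1 h, 37 °C, dark.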
Numbers without * were called inactive; ? = inconclusive; nt = not tested or not shown; & = joins results of further samples; [ ] = another dose, or the depositor's remark.

SMILES	TRPML1 ag	D2 PAM	D2 ag	CtBP-E1A inh	PINK1 modulator	Six1-Eya2 inh
O=C(c1nc2ccccn2c1CNCCOc1cccnc1)N1CCOCC1	0.4	-7	-2.7	-6	0.1%	5
CCc1nc(SCCO)c2oc3ccccc3c2n1	0.0	-13	-2.6	-6	-2.9%	-10
Cc1c(C(=O)OC(C)C)sc(NC(=O)c2cnccn2)c1C(=O)OC(C)C	0.5	-8	-0.3	-2	7.8%	2
CCOc1ccccc1N(CC(=O)Nc1ccc(C)cc1)S(C)(=O)=O	0.4	-6	-0.9	-2	-3.0%	4
CCc1cc2c(SCC(=O)NC(=O)c3cccn3C)ncnc2s1	-0.7	-3	-0.1	0	-0.2%	-2
CCN1CCN=C1Nc1ccccc1	-0.4	-9	-1.6	4	-1.1%	5
Cc1ccnc(Nc2nc(-c3c(C)nc4sccn34)cs2)c1	2.6	-40	4.6	-78*	nt	-68*
O=P(c1ccccc1)(c1ccccc1)c1nc(-c2ccc(Cl)cc2)oc1N1CCOCC1	4.0	-4	-1.4	-2	3.2%	-3
COc1ccc(N=C(N)N=C(N)N)c(OC)c1	-0.5	-43	-2.3	-4	-1.6%	2
CC1CCN(S(=O)(=O)c2nnc(NC(=O)COc3ccccc3)s2)CC1	0.7	-7	2.8	nt	0.7%	1
CC1CCc2c(sc3ncnc(NS(=O)(=O)c4cccs4)c23)C1 (configuration not stated)	-0.6	0	-1.6	-9	2.8%	-6
COc1ccc(CC2(C)OC(c3ccccc3)=NN2C(C)=O)cc1 (configuration not stated)	0.6	-15	-4.1	-2	1.5%	7
COc1ccc(C(=O)OCC[N+]2(C)CCCCC2)cc1	0.5	11	-1.9	15	3.3%	4
O=C(NC1CCCCC1)N(Cc1nc2ccccc2c(=O)[nH]1)C1CCCC1	-0.5	-8	-4.2	0	-0.6%	-4
CCOc1ccc(N2C(=O)CC(N(CCc3ccc(OC)cc3)C(=O)/C=C/C(=O)O)C2=O)cc1 (configuration not stated)	0.5	-2	-3.4	0	-0.2%	6
C=CCn1cc(CN2CCC(C(=O)Nc3cccc(-c4cccc(Cl)c4)c3)CC2)c(C)n1	1.3	-10	-0.5	nt	0.6%	1
CC1CCN(Cc2cc(=O)oc3cc(O)c(Cl)cc23)CC1	1.1	-10	-2.9	nt	1.3%	9
COc1ccc(CC(=O)Nc2ccc3nc(SC)sc3c2)cc1OC	-0.7	1	3.8	0	?	-6
O=C(Nc1ccc(C(=O)N2CCOCC2)cc1)c1cccc(Br)c1	-0.3	-20	-3.2	4	-0.9%	3
Cc1ccc(CNC(=O)C(=O)NCCC2CCCCN2S(=O)(=O)c2cccs2)cc1 (configuration not stated)	0.2	-10	?	4	-0.4%	-12
O=C(OCCCc1cc2ccccc2c(=O)o1)c1ccc(F)cc1	2.1	-2	1.5	15	0.0%	20
Cc1ccc(-c2nc(N3CCN(C)CC3)c3ccccc3n2)cc1	nt	-81	-3.0	nt	2.4%	1
C=C(C)c1cccc(C(C)(C)NC(=O)NC2CC(C)(C)NC(C)(C)C2)c1	0.3	-3	0.5	-4	0.6%	-3
CCN(CC)C(=O)CSc1nc2c(sc(=S)n2Cc2ccco2)c(=O)n1-c1ccccc1	2.4	-6	-3.3	-10	4.7%	-12
CCOC(=O)c1ccc(NC(=O)c2ccco2)cc1	nt	3	-2.4	nt	0.1%	-4
Cc1nc(C(=O)NCc2ccccc2)sc1C1(C)CC(c2cccc([N+](=O)[O-])c2)=NO1 (configuration not stated)	0.5	-5	-4.6	-6	-1.0%	-14
O=C(O)c1ccc(Nc2nc3ccccc3nc2NS(=O)(=O)c2cccs2)cc1	0.0	-6	-2.8	-4	0.3%	6
CCOC(=O)c1c(S(=O)(=O)Nc2ccc(C)c(F)c2)c(C)n(C)c1C	0.8	-10	0.9	nt	14%	1
CCCCOC(=O)Nc1nnc(SCCOc2ccc(C)cc2)s1	-0.7	-12	-2.7	30	6.8%	14
C=CCSc1nc(=O)n2ccc(C)cc2n1	0.7	2	-2.4	-1	1.2%	-24
Cc1cccc(NC(=O)CNC(=O)c2cccc(S(=O)(=O)NCc3cccs3)c2)c1C	-0.4	-9	4.4	nt	1.6%	-5
O=C(NCCN1CCC(n2c(=O)[nH]c3ccccc32)CC1)c1cccc(F)c1	-0.6	nt	nt	-6	-0.2%	7
COC(=O)c1c(NC(=O)c2c(OC)cccc2OC)sc2c1C(C(=O)OC)CC2 (configuration not stated)	0.9	3	-4.6	-4	13%	-1
CNc1ccc(-c2cccc(C#N)c2)cn1	-1.4	5	5.6	6	-0.6%	11
CCC(C(=O)OCCN(CC)CC)c1ccccc1 (configuration not stated)	0.2	-11	-4.3	-1	0.1%	8
COCCNc1nnc(SCC(=O)c2c[nH]c3ccccc23)s1	0.6	-8	-0.9	0	2.1%	3
O=[N+]([O-])c1ccc(/C=N/Nc2cc(Cl)nc(-c3ccccc3)n2)cc1	-0.4	-3	-1.4	5	4.2%	7
CC(C)CC1NC(=O)c2cccnc2-n2c1nc1cc(F)c(F)cc1c2=O (configuration not stated)	-0.2	3	-1.6	7	5.6%	-1
C=CCN1CCN(C(CC(C)C)c2nnnn2CCOC)CC1 (configuration not stated)	-0.2	-8	-1.1	-1	-5.0%	10
CC(=O)Nc1ccc(NC(=O)COc2ccc(-c3ccccc3)cc2)cc1	-0.2	15	-2.7	1	3.4%	4
Cc1cc(C(=O)COC(=O)c2ccc(N)cc2)c(C)n1-c1c(C)n(C)n(-c2ccccc2)c1=O	1.4	-1	-2.3	4	-1.0%	-2
COc1ccc(C(=O)NC(=S)NC2CCSC2=O)cc1 (configuration not stated)	0.3	3	-7.4	9	-2.1%	0
CC(=O)N(CC1CCCO1)C1(C(=O)NC2CCCC2)CCCCC1 (configuration not stated)	-0.4	1	0.7	0	-1.4%	0
CCOc1ccc(NC(=O)COC(=O)c2cc(=O)c3ccccc3o2)cc1	-0.7	-4	1.3	-4	0.4%	3
O=C(N/N=C/c1ccccc1Cl)c1nc2ccc([N+](=O)[O-])cc2c(=O)[nH]1	-0.3	-4	-1.5	nt	3.1%	-8
CC(C)(C)c1ccc(OCC(=O)N(Cc2cccs2)C2CCS(=O)(=O)C2)cc1 (configuration not stated)	0.4	-6	-1.0	0	2.1%	13
COc1ccccc1N(C)S(=O)(=O)c1ccc(C(=O)N(C)Cc2cccc(OC)c2OC)cc1	-1.2	-3	3.1	-1	2.0%	-12
C/C(NCc1cccnc1)=C(\C#N)C(=O)NCc1ccccc1	-0.5	19	1.5	4	0.1%	1

Limited to D2 ag, PINK1 modulator and CtBP-E1A inh, for some of the entries so far:
| molecule | D2 ag | PINK1 modulator | CtBP-E1A inh |
| --- | --- | --- | --- |
| CC1CCc2c(sc3ncnc(NS(=O)(=O)c4cccs4)c23)C1 (configuration not stated) | -1.6 | 2.8% | -9 |
| COc1ccc(CC2(C)OC(c3ccccc3)=NN2C(C)=O)cc1 (configuration not stated) | -4.1 | 1.5% | -2 |

(more compounds)
SMILES	TRPML1 ag	D2 PAM	D2 ag	CtBP-E1A inh	PINK1 modulator	Six1-Eya2 inh
COc1cc(OC)c(C(=O)Nc2cc(S(=O)(=O)N3CCOCC3)ccc2N2CCOCC2)cc1OC	-0.4	-15	-1.6	-1	1.2%	2
CC(=O)N(CCc1cccc(C)c1)Cc1cc2ccc(C)cc2[nH]c1=O	1.8	2	-4.8	0	-0.2%	-3
CCOC(=O)C(NC(=O)NCc1ccc(F)cc1)(OCC)C(F)(F)F (configuration not stated)	0.2	-1	-3.3	-1	12%	17
CCCCCC(=O)N1C[C@@H](n2cc(C3CC3)nn2)[C@H](O)C[C@@H]1c1ccccc1	-0.1	-1	-9.8	-9	0.8%	4
O=C(COc1ccc([N+](=O)[O-])cc1)NCC(c1cccs1)N1CCOCC1 (configuration not stated)	1.5	-66	8.6	7	-1.6%	9
O=S(=O)(Nc1nc(-c2ccccc2)cs1)c1cccc(C(F)(F)F)c1	2.2	-7	-4.1	-7	2.0%	-12
Nc1nonc1-n1nnc(C(=O)N/N=C/c2cccc(Cl)c2)c1-c1ccc2c(c1)OCO2	-0.6	-8	-8.3	2	16%	-1
COc1ccc(C2/C(=C(/O)c3ccc(F)cc3)C(=O)C(=O)N2c2ccccn2)cc1OC (configuration not stated)	0.1	-3	-1.7	4	0.3%	7
CNS(=O)(=O)c1cccc(C(=O)NCC(c2ccco2)N(C)C)c1 (configuration not stated)	0.0	-12	-4.1	24	2.4%	3
CCCCNC(=O)CN1CCC2(O)CCCCC2C1c1ccccc1OC (configuration not stated)	-0.5	-12	0.4	0	-0.5%	3
O=C(CCc1nnc(CCCCc2ccccc2)o1)NCc1cccc(F)c1	0.0	-4	-3.3	-5	0.3%	2
Cn1c(CC(=O)NNC(=O)c2ccccc2F)nc2ccccc21	-0.2	-2	?	nt	-0.9%	?
CC(=O)c1cccc(NC(=O)C2CC(=O)N(C3CCCC3)C2)c1 (configuration not stated)	0.4	-7	-2.3	0	-0.8%	-8
COc1ccc(CCNC(=O)c2ccc(CS(=O)(=O)Cc3cccc(C)c3)o2)cc1OC	-1.2&1.0	0	-2.0	-5	0.8%&-1.1%	-1
N/C(CN1CCCC1=O)=N\OC(=O)c1ccc(Cl)c(Cl)c1	0.5	110*	?	5	4.0%	13
COc1ccc(-c2cc(C(=O)NCc3ccccc3)no2)cc1OC	0.3	-21	5.3	3	1.9%[38.3 µM]	2
CN(CC(=O)Nc1ccc(Cl)c(Cl)c1)C(=O)c1cccc2cccnc12	0.4	-3	2.3	-15	0.1%	-1
O=C(c1ccc(CSc2nc3ccncc3[nH]2)cc1)N1CCN(c2cccc(Cl)c2)CC1	0.5	-6	1.6	-29	1.9%	-23
Cc1cc(C)cc(C(=O)Nn2cnnc2)c1	0.2	-12	1.4	4	1.8%	7
OC1(c2ccc3c(c2)OCO3)CCN(Cc2ccc(F)cc2)CC1	nt	-40	-6.4	-2	1.4%	-3
Cc1nc2ccccn2c1C(=O)N/N=C/c1ccc2c(c1)OCO2	0.8	-2	2.8	-6	?	-5
COCCNC(=O)CC(NS(=O)(=O)c1ccc(C)cc1)c1ccco1 (configuration not stated)	1.3	14	-2.7	5	0.4%	2
NNC(=O)Cn1c(COc2ccc(Cl)cc2)nc2ccccc21	-0.5	3	-3.9	-2	1.7%	0
O=c1nc2sc3ccccc3n2c(=O)n1-c1ccc(Cl)cc1	-0.4	-9	-3.6	8	?	-8
CNC(=S)N(Cc1ccco1)Cc1cc2cc(OC)ccc2[nH]c1=O	-0.1	-10	1.8	0	1.0%	-4
BrC(=C\c1ccccc1)/C=N/N1CCN(Cc2ccccc2)CC1	1.8	-32	-4.9	-21	-0.1%	-13

Given with two lines to a compound: part of the list above.
Below each compound: TRPML1 ag, D2 PAM, D2 ag, CtBP-E1A inh, PINK1 modulator, Six1-Eya2 inh
Cc1nc2ccccn2c1C(=O)N/N=C/c1ccc2c(c1)OCO2
    0.8, -2, 2.8, -6, ?, -5
CNC(=S)N(Cc1ccco1)Cc1cc2cc(OC)ccc2[nH]c1=O
    -0.1, -10, 1.8, 0, 1.0%, -4
NNC(=O)Cn1c(COc2ccc(Cl)cc2)nc2ccccc21
    -0.5, 3, -3.9, -2, 1.7%, 0
CN(CC(=O)Nc1ccc(Cl)c(Cl)c1)C(=O)c1cccc2cccnc12
    0.4, -3, 2.3, -15, 0.1%, -1
